Screens (PubChem)
D2 agonist = Beta-Arrestin HTS for Positive Allosteric Modulators of the Human D2 Dopamine Receptor: Agonists. D(2) dopamine receptor (Homo sapiens), P14416. DiscoveRx PathHunter D2 beta-arrestin, luminescence, 90 min; 100% = 57 uM dopamine signal. activation, % (no concentration beside the values). hit rate 0.084% among 360,000. AID 624465, 2012; in the data active = activation above about 40%; inconclusive = about 15% to 40%; inactive = below about 15%; also: compound concentration not given in the record; the text of the record calls up to 30% inactive
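Agonist mode: compounds alone added to overnight-plated D2 PathHunter cells for 90 min at 37 C, with 57 uM final dopamine (EC100) defining full response. Beta-arrestin recruitment detected by chemiluminescent reagent, read after 1 h at ambient temperature.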
Six1-Eya2 blk = qHTS Assay for Inhibitors of the Six1/Eya2 Interaction; Homeobox protein SIX1 (Homo sapiens) + Protein phosphatase EYA2 (Homo sapiens), …; AlphaScreen GST-Six1/His-Eya2 binding, biochemical; active compounds read low; control for the full effect not named in the record; activity change, % (test concentration not listed); hit rate 0.56% among 360,000; in the data active = activity change below about -65%; inconclusive = about -30% to -65%; inactive = above about -30%; also: % is scaled to controls: 0 for no effect and ±100 for the full control effect
Target sequence (O00167 whole entry, looked up): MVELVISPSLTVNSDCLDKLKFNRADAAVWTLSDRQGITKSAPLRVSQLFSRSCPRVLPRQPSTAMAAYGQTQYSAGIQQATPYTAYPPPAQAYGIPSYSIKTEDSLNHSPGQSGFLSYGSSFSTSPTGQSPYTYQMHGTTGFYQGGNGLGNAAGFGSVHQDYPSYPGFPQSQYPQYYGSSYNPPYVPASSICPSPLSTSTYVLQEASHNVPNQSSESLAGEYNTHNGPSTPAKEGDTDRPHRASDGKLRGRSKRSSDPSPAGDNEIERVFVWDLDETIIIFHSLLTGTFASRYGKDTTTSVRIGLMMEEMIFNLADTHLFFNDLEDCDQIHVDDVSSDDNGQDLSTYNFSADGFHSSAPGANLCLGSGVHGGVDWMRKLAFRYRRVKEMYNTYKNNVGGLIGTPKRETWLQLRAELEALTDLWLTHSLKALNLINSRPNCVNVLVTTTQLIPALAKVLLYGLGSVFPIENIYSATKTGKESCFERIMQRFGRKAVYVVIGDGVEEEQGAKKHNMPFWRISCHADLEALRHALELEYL
Target sequence (Q15475 whole entry, looked up): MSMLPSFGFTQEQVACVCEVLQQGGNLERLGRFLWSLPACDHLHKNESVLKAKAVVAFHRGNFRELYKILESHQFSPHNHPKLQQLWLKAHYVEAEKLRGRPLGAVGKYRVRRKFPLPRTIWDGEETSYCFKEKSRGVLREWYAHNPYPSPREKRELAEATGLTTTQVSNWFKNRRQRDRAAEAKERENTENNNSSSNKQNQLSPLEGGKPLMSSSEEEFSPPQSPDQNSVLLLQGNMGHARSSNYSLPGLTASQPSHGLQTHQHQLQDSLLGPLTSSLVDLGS
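AlphaScreen with GST-Six1 and His-Eya2 (5X mix: 250 nM and 500 nM), glutathione donor and nickel acceptor beads; buffer 50 mM Tris pH 8.0, 300 mM NaCl, 1 mM TCEP; 1 h at 37 C in the dark.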
CtBP-E1A inh = qHTS Assay for Inhibitors of the CtBP/E1A Interaction. CtBP / adenovirus E1A interaction (AlphaScreen). AlphaScreen GST-E1A/His-CtBP binding, 1536-well; active compounds read low; control for the full effect not named in the record. activity change, % (no concentration beside the values). hit rate 0.49% among 340,000. AID 651724, 2012; in the data active means activity change below about -65%; inconclusive means about -30% to -65%; inactive means above about -30%; also: % is scaled to controls: 0 for no effect and ±100 for the full control effect
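GST-E1A and His-tagged CtBP (125 nM each as 5X stock) were preincubated with pin-transferred compound for 2 h at 37 °C in the dark, then glutathione donor and nickel acceptor beads were added for 1 h before AlphaScreen reading.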
Sfp PPTase inh = qHTS Assay for Inhibitors of Bacillus subtilis Sfp phosphopantetheinyl transferase (PPTase) | 4'-phosphopantetheinyl transferase ffp (Bacillus subtilis), Q9F4F7 | Biochemical Sfp PPTase activity, qHTS | Potency, µM, for inactives: max response, negative = inhibition, most hits filed as inhibitors | hit rate 3.5% among 310,000 | AID 1490, 2009; active = well fitted inhibition curve with a large enough effect; inconclusive = small, poorly fitted or top-dose-only effect, or another doubt; inactive = no such curve, though single readings can be large or run the other way;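 also: the enzyme is Sfp with the accession as filed and its product quenches rhodamine fluorescence; potency is read from the fitted curve at half-maximal effect; 0% = enzyme reaction without inhibitor and -100% = no enzyme wells; top concentration of the series not given in the record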
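Reaction rates are the 30-min fluorescence difference (ex 525, em 598 nm) in wells containing 15 nM Sfp, 5 uM rhodamine-CoA and 12.5 uM BHQ-2-YbbR at pH 7.6 with 10 mM MgCl2.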
TRPV1 PAM = HTS Assay for Compounds that Act as Potentiators of the Vanilloid Receptor 1; TRPV1-expressing cells, Fluo-8 calcium influx, capsaicin EC20 potentiation; host cell line not named in the record; control for the full effect not named in the record; AID 540277, 2011; hit rate 0.02% among 320,000; potentiation, % at 8.33 µM; Transient receptor potential cation channel subfamily V member 1 (Homo sapiens), Q8NER1; active means potentiation above 80%; inconclusive means 30% to 80%; inactive means below 30%; also: 0% is about no effect
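Fluo-8 calcium influx in TRPV1-expressing cells, kinetic read (ex 480/em 520 nm). Compound added and read 3 min for agonist activity, followed by capsaicin at EC20 final and 2 min further read for enhancement.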
PINK1 expr mod = A Quantitative High throughput Screen to Identify Chemical Modulators of PINK1 Expression; PINK1 immunofluorescence, high-content cytometry, 24 h; Potency, µM (titrated, usually from 76.6 µM), for the others: at the top dose activation (PINK1 increase), actives largely listed as activators; hit rate 0.2% among 410,000; AID 624263, 2012; active = well fitted activation curve with a large enough effect; inconclusive = small, poorly fitted or top-dose-only effect; inactive = flat fitted curve, though single readings scatter; cell line not stated here;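 also: potency is read from the fitted curve at half-maximal effect; % of control where 0% means no effect; nearly all actives have a fitted effect of over 65% in size; a mitochondrial uncoupler was the plate control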
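PINK1 protein level read as immunofluorescence by microplate cytometer in a fixed, stained stable cell line after 24 h exposure to five compound concentrations, with CCCP as control.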
D2 PAM = Beta-Arrestin HTS for Positive Allosteric Modulators of the Human D2 Dopamine Receptor: Potentiators | DiscoveRx D2 beta-arrestin cells, luminescence, 90 min; 100% = 57 uM dopamine signal | potentiation, % (test concentration not listed) | D(2) dopamine receptor (Homo sapiens), P14416 | hit rate 0.23% among 360,000 | AID 624464, 2012; active = potentiation of 50% or more; inconclusive = 30% to 50%; inactive = 30% or less;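 also: compound concentration not given in the record; tested on top of an EC20 dose of dopamine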
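PathHunter D2 cells, attached overnight at 37 deg C, received compound in DMSO plus dopamine at EC20 (50 nM final) for 90 min at 37 deg C. Beta-arrestin recruitment was read as luminescence after 1 h with detection reagent at ambient temperature.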
* = called active by the depositor; ? = inconclusive; · = not tested or not shown; & = joins results of further samples; [ ] = remark or other dose. Not a hit list. About 3.7% of those tested had a hit in this group.

SMILES	D2 agonist	Six1-Eya2 blk	CtBP-E1A inh	Sfp PPTase inh	TRPV1 PAM	PINK1 expr mod	D2 PAM
CN(C(=O)Nc1ccc(Cl)cc1)c1c2c(nn1C)CCCC2	0.9	0	6	22%	1	7.7%	0
Cc1cc(C)n(-c2ccc(C(=O)OCC(=O)N(CC(C)C)C3CCS(=O)(=O)C3)cc2)n1 (stereo not drawn)	-0.6	4	9	11%	-1	-1.2%	5
CCOc1cc(N2CCOCC2)c(OCC)cc1NC(=O)Cn1[nH]c(=O)c2ccccc2c1=O	-3.3	-12	-7	8%&15%	-5&2	-0.8%	1
CCCCCc1c(-c2cccc(F)c2)ncn1CCc1ccccc1OC	·	-14	3	·	·	-0.3%	·
COc1ccc(/C=C2\SC(=S)N(CCCC(=O)Nc3ccccn3)C2=O)cc1OC	-1.5	-23	-11	-10%	-2	2.2%	-5
O=C(Cc1cccs1)N(Cc1ccco1)C1(C(=O)NC2CCCC2)CCCCC1	-3.4	-3	-1	14%	-9	-1.2%	-3
Cc1cccc(Oc2ccccc2NC(=O)c2cnccn2)c1	-1.7	7	10	11%	1	0.6%	-9
N#C/C(=N/Nc1ccccc1[N+](=O)[O-])C(N)=S	-8.7	-12	-13	?	-7	0.4%	-25
COc1cc(/C=C2\SC(=S)N(CCCCC(=O)O)C2=O)ccc1OS(=O)(=O)c1ccc(C)cc1	4.6	-23	2	·	-7	9.7%	?
CC(C)CN(C(=O)C1CCCCC1)C1CCS(=O)(=O)C1 (stereo not drawn)	-12	2	3	·	-3	-0.5%	20
COc1ccc(C(C)(C)C)cc1NC(=O)C1C2C=CC(C2)C1C(=O)O (stereo not drawn)	-1.6	-1	-7	-26%	5	-0.2%	2
CC(C)(C)OC(=O)NCCC(=O)N/N=C/c1cccc2nccnc12	-0.5	?	-22	?	10	1.7%	-7
COc1cc(C(=O)Nc2ccc(Oc3ncnc4sc(-c5ccccc5)cc34)cc2)cc(OC)c1OC	-6.9	6	7	?	?	4.3%	3
COc1ccc(-c2nc3cnccn3c2NC(C)(C)CC(C)(C)C)cc1O	2.1	6	7	-14%	-29	-1.9%	3
O=C(CCS(=O)(=O)c1ccccc1)Nc1nc2c(s1)CCCC2	0.6	20	18	11%	-2	0.8%	-3
O=C(Nc1ccc(C(=O)O)cc1)/C(=C\c1ccccc1)NC(=O)c1ccc(Br)cc1	-0.1	-2	1	5%	-7	-2.2%	-10
O=S(=O)(NCC1CCCO1)c1ccc2oc3ccc(S(=O)(=O)NCC4CCCO4)cc3c2c1 (stereo not drawn)	0.0	-1	2	0%	0	·	-5
CC1CCN(C(=O)CSc2nnc(-c3ccc(S(=O)(=O)N4CCOCC4)cc3)n2C)CC1	-1.2	2	6	15%	1	4.0%[38.3 µM]	-8
Cc1cccc(CCNC(=O)CCc2c(C)nc3ncnn3c2C)c1	-0.5	5	0	10%	13	0.4%&1.0%	2
Cc1cc(Nc2ccccc2C(=O)O)n2ncnc2n1	-2.1	-7	0	·	·	0.3%	-4
Cc1cc(NC(=O)c2ccc(C)o2)no1	1.3	6	-2	10%	-6	0.2%	-6
NC(=O)c1nsc(C(=O)N(c2ccccc2)C(C(=O)NCC2CCCO2)c2ccc(F)cc2)c1N (stereo not drawn)	-2.8	7	1	23%	-17	11%	-8
OC(c1cc(F)cc(Cl)c1)c1ncc(-c2ccc(Cl)cc2)[nH]1 (stereo not drawn)	0.6	-12	-12	·	·	?	0
Cc1ccc(/C=C/C(=O)N2CCc3ccccc32)o1	1.3	-25	3	28µM*	3	1.0%	-18
CCOc1ccc(-n2cc(C(=O)Nc3cccc(Cl)c3)c3cc(OC)c(OC)cc3c2=O)cc1	-4.1	-4	-7	0%	6	0.1%	-18
CCOC(=O)N1CCC(NC(=O)C2CCN(S(=O)(=O)c3cccc4cccnc34)CC2)CC1	-0.6	0	-1	0%	9	1.4%	-5
NS(=O)(=O)c1ccc(CCNC(=O)c2ccccc2-c2ccccc2)cc1	9.0	6	18	-2%	-2	2.9%	-1
O=C(CCCCCN1C(=O)c2cccc3cccc(c23)C1=O)N1CCOCC1	-5.1	-11	1	2%	2	0.4%	-3
O=C(NC12CC3CC(CC(C3)C1)C2)N1CCN(c2ncccn2)CC1	-3.9	3	13	12%	-6	-0.4%	-8
CCCNC(=O)CCNC(=O)c1ccc(C(C)(C)C)cc1	-1.9	-1	2	10%	-5	-4.5%[38.3 µM]	-3
CCc1ccc(OCC(=O)NC(=S)Nc2ccc(C(=O)O)cc2)cc1	-2.0	4	1	4%	1	-2.0%	-1
CC1=Nc2cccc3cccc(c23)N1C	4.5	2	4	-16%	4	-0.6%	10
CCCOc1ccc(C2C(=O)N(C3CCCCC3)CC(=O)N2CCC)cc1OC (stereo not drawn)	-3.2	-2	-2	2%	12	10%[38.3 µM]	3
CCCCS(=O)CC(CS(=O)CCCC)OC(=O)c1ccc(C)cc1 (stereo not drawn)	-0.7	6	6	21%	7	-0.8%	3
c1ccc(CSc2ncn(-c3ccccc3)n2)cc1	1.7	33	23	-13%	5	1.6%	-12
CCN(CC)CCN1CNC(=S)N(c2ccccc2OC)C1	-3.0	-3	-8	-2%	13	-1.5%	-5
COc1cc(C(=O)Nc2ccc(S(=O)(=O)NC(C)(C)C)cc2)cc(OC)c1OC	0.5	-2	-5	19%	3	1.2%[38.3 µM]	-2
FC(F)Oc1ccc(NC(=S)N2CCc3ccccc32)cc1	-2.0	-1	-4	16%	-1	4.2%	-5
Clc1ccc(SCc2cc(-c3ccc(Cl)cc3)on2)cc1	-1.5	72	84	-3%	-7	9.2%	19
O=C(COc1nncc2ccccc12)NCC(F)(F)F	-4.4	1	6	4%	2	-0.4%	-3
COc1ccccc1OCc1nc(C#N)c(NCc2ccco2)o1	-1.1	-7	-2	-5%	-10	-1.0%	5
CC(C)c1ccc(NC(=S)N2CCCC2)cc1	0.1	4	8	10%	-8	-0.3%	4
CC1CC(C)CN(S(=O)(=O)c2ccc(NC(=O)CN3C(=O)NC(C)(c4ccccc4)C3=O)cc2)C1 (stereo not drawn)	1.6	-6	-14	0%	3	-0.7%	11
COC(=O)c1cccnc1SCc1ccccc1	-3.5	34	36	-1%	?	-0.5%	-6
CCN1CCN(C(=O)CN(C)S(=O)(=O)c2ccc(OC)c(C)c2)CC1	-2.1	9	2	18%	8	4.6%[38.3 µM]	-9
CN(CCC#N)C(=S)Nc1ccc(F)cc1	0.9	-1	4	3%	28	-0.5%	-5
CCOC(=O)CN(C(=O)COc1nc(C)cc(C)c1C#N)c1ccc(F)cc1	-6.9	2	-12	19%	-7	-0.3%	-28
CCn1c(NCc2cc(Cl)ccc2O)nc2ccccc21	-1.7	-11	-14	-18%	-1	9.6%	-20
C=CCn1c(=S)[nH]c2sc3c(c2c1=O)CCC3	3.8	-2	9	-11%	-19	-0.7%[38.3 µM]	-6
COC(=O)c1ccc(N/C=C/C(=O)c2ccccc2)cc1	-2.4	19	3	13%	-8	4.1%	1

Exported with two lines to a compound: entries from further up
Every second line gives: D2 agonist	Six1-Eya2 blk	CtBP-E1A inh	Sfp PPTase inh	TRPV1 PAM	PINK1 expr mod	D2 PAM
Cc1cc(C)n(-c2ccc(C(=O)OCC(=O)N(CC(C)C)C3CCS(=O)(=O)C3)cc2)n1 (stereo not drawn)
→ -0.6	4	9	11%	-1	-1.2%	5
COc1ccc(C(C)(C)C)cc1NC(=O)C1C2C=CC(C2)C1C(=O)O (stereo not drawn)
→ -1.6	-1	-7	-26%	5	-0.2%	2
CN(C(=O)Nc1ccc(Cl)cc1)c1c2c(nn1C)CCCC2
→ 0.9	0	6	22%	1	7.7%	0

Additional entries
SMILES	D2 agonist	Six1-Eya2 blk	CtBP-E1A inh	Sfp PPTase inh	TRPV1 PAM	PINK1 expr mod	D2 PAM
CCOc1ccc(NC(=O)CCC(=O)N/N=C2\CCCc3ccccc32)cc1	-3.2	2	3	16%	?	13%	-19
O=C(CCCNc1ccccc1)N/N=C/c1cccs1	-5.0	-3	-3	15%	11	-0.1%	-4
COc1ccc(N2CCN(C(=O)COC(=O)c3cccc(S(=O)(=O)Nc4ccccc4OC)c3)CC2)cc1	-0.2	?	-7	·	21	-2.1%	2
Cn1c(C(=O)N[C@@H](Cc2ccccc2)C(=O)NCCC(=O)O)cc2cc(Cl)ccc21	-1.1	6	-24	17%	1	-2.9%	-7
CSc1ccc(S(=O)(=O)NCC(=O)OCC(=O)NCCc2ccccc2)cc1[N+](=O)[O-]	2.4	-9	-12	·	-6	-0.9%	3
O=C(NCc1cccnc1)c1cccnc1-c1nc2ccccc2s1	2.8	-2	-3	-11%	16	-1.8%[38.3 µM]	6
CCC(C)(C)NC(=O)C(c1ccc(O)cc1)N(Cc1ccco1)C(=O)CCC(=O)Nc1ccccn1 (stereo not drawn)	-5.1	28	-18	7%	8	0.4%	-4
O=C(Nc1ccccc1)c1ccccc1NS(=O)(=O)c1ccc(Cl)s1	-2.3	3	5	27%	13	?	5
O=C(Nc1ccc(Cl)cc1)OCCn1nnnc1C(c1ccccc1Cl)N1CCOCC1 (stereo not drawn)	-1.6	-3	-2	1%	?	-0.7%	10
CCC(=O)c1ccc(-c2ccccc2)cc1	-3.0	37	32	13%	-13	3.1%	-14
CC1(C)CC(=O)C2=C(C1)N(c1ccc(Cl)cc1)C(=O)C2(O)C(F)(F)F (stereo not drawn)	-6.3	-1	6	24%	5	10%	-16
COc1cc(C(=O)NCCC(=O)N2CCCCC2)cc(OC)c1OC	-0.5	11	5	6%	-1	1.3%	2
C=CCn1c(SCc2c(F)cccc2Cl)nnc1-c1ccco1	0.8	-2	-12	6%	27	-1.7%	-9
COc1ccc(NC(=S)NC(=O)C2CCCCC2)cc1	0.8	-1	-3	5%	-1	13%	-6
CCCCOC(=O)C1CN(c2ccccc2)N=C1C(C)=O (stereo not drawn)	-3.4	124	164	5%	0	1.8%	-2
